# ALR inh: inhibitors of human sulfhydryl oxidase ALR; P55789; purified ALR, DTT oxidation, H2O2 HRP-luminol luminescence; inhibition, % (test concentration not listed); actives 3.8% (n = 290,000);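 active = mean and each replicate at 75% or more; inconclusive = only one of the two met; inactive = neither met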;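 also: stock transfer was 7.5 nL into about 7.5 µL; 0% = neutral wells and 100% = wells with inactivated enzyme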
# Target sequence (P55789 whole entry, looked up): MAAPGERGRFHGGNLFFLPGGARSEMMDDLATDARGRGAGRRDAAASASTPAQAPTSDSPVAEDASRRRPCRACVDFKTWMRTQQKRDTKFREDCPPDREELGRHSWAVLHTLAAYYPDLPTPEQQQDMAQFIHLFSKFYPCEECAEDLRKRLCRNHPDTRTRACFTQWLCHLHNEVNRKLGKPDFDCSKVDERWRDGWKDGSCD
# FGF22 binding: shifts melting point of recombinant human FGF22; recombinant FGF22 thermal shift, SYPRO orange fluorescence; percent of sucrose octasulfate shift, DMSO zero; actives 1.5% (n = 340,000); Q9HCT0; calls only at 9.99 µM;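 active = melting point raised past a set limit in the mean and every replicate; inconclusive = no clear call; three in four hits are not shown here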
# Target sequence (Q9HCT0 whole entry, looked up): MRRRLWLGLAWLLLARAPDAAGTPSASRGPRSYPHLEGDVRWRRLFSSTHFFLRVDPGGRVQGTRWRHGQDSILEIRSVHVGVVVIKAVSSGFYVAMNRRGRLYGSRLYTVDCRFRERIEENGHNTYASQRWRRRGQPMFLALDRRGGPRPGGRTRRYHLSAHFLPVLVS
# E coli growth: E. coli growth inhibition. Escherichia coli growth, OD600, 23 h; active compounds read low. OD600 absorbance (test concentration not listed). actives 0.21% (n = 330,000). AID 1053175;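 active = OD600 absorbance below the run mean of sample wells minus 3.6 SD, in any replicate, cut at about 0.56 in these data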;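 also: stock transfer was 300 nL into about 60 µL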
# HNF4A DNA FP: change in binding of human HNF4 alpha to DNA; P41235; HNF4a-FITC DNA binding, fluorescence polarization, 1 h; activity change, % at 10 µM; actives 0.3% (n = 360,000); AID 1224865; in the data active = activity change above about 30%, passing the limit was not always enough;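 also: controls were the assay level and a saturating level of protein; the project sought stronger binding though the title names inhibitors; some compounds called inactive have numbers as strong as hits; positive values seem to mean higher polarization but the record does not say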
# Target sequence (P41235 whole entry, looked up): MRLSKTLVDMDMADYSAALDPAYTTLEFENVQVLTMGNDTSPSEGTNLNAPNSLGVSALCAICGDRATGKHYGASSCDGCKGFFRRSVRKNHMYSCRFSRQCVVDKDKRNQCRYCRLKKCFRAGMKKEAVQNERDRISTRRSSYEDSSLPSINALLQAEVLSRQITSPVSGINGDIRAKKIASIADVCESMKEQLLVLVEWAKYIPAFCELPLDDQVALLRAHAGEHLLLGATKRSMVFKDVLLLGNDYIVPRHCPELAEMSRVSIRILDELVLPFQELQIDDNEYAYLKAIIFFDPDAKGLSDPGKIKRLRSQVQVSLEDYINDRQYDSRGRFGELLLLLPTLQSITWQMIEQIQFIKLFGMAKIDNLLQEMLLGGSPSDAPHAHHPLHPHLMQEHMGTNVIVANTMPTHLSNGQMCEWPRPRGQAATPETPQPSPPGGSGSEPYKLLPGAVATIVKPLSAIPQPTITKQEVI
# Vif A3G: inhibitors of Vif binding to APOBEC3G peptide, primary screen, biochemical, TR-FRET, GST-Vif 1-94, biotin-A3G peptide, dose response retest (AID 1117319); inhibition, %, or IC50 in µM where a hit was titrated; TR-FRET GST-Vif / biotin-A3G peptide binding; higher % means a stronger effect; test concentration not given here; strong numbers were not always called active; actives 0.57% (n = 260,000);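 active = above the screen mean plus three standard deviations and confirmed in dose response; inconclusive = results disagree or hit not tested in dose response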;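 also: Vif residues 1-94 fused to GST binding biotinylated APOBEC3G peptide 110-148; 0% = full assay without inhibitor and 100% = GST in place of GST-Vif; retest series ran down from 100 µM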
# Ecoli rRNA inh: inhibitors of bacterial rRNA selective over humanized ribosomes | GFP signal change (wild-type ribosome), % (concentration not given with the values) | E. coli WT GFP vs humanized-ribosome RFP mutants, fluorescence, 24 h; active compounds read low; DMSO median 0, no signal -100 | AID 720706 | actives 1.6% (n = 350,000);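 active = significant combined selectivity score with lowered wild-type GFP, culture density cut under 30%, mutant RFP and density less affected; inactive = any of these conditions unmet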; also: one replicate is shown; some compounds called inactive have numbers as strong as hits
# AF4-AF9 inh: inhibitors of human MLL-AF4/AF9 interaction; P42568; AlphaScreen, biotin-AF4 peptide binding to FLAG-AF9; inhibition, % at 10 µM; actives 0.47% (n = 350,000); AID 651704;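 active = every replicate reaching a set inhibition limit, whatever the replicate mean, cut at about 25% in these data; inconclusive = mean inhibition reaches that limit but some replicates miss it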;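 also: 0% = plate neutral control median and 100% = total signal loss; the record names both 10 and 1 µM as test concentration; the first replicate is given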
# Ecoli rRNA inh OD600: recorded beside Ecoli rRNA inh, whose call it bears; OD600 change, %; measured here: OD600 growth;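 optical density of the mix in the first replicate; 0 = DMSO median and -100 = no signal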
# Ecoli rRNA inh RFP: recorded beside Ecoli rRNA inh, whose call it bears; RFP signal change, %; measured here: RFP humanized mutant strains;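 first replicate; 0 = DMSO median and -100 = no signal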
# * marks the source's active call; other numbers are inactive results; i = inactive; u = inconclusive; x = not tested or not shown. Not all compounds are listed; count on the stated rates, not on these rows.
SMILES,ALR inh,FGF22 binding,E coli growth,HNF4A DNA FP,Vif A3G,Ecoli rRNA inh,Ecoli rRNA inh OD600,Ecoli rRNA inh RFP,AF4-AF9 inh
O=S(=O)(N[C@@H]1CC[C@H](CCn2cc(-c3ccccn3)nn2)O[C@@H]1CO)c1cccc(Cl)c1,x,i,x,x,x,-3.6,-7.2,-2.4,1.1
CCOC(=O)c1ccc(NC(=O)Cn2nnc(-c3ccccc3F)n2)cc1,0.2,x,0.697,1.0,x,x,x,x,x
CC(=O)N(CC1CCC1)C[C@H]1N[C@H](CO)[C@@H]1c1ccc(C2=CCCC2)cc1,x,i,x,x,x,0.9,-20.9,6.2,10.1
O=C(COC(=O)/C=C/c1cccs1)Nc1ccc(Cl)cc1F,1.6,i,0.701,1.1,-2.8%,0.8,7.6,-0.1,0.3
C[C@H](CO)N1C[C@H](C)[C@H](CN(C)Cc2ccc(C(F)(F)F)cc2)Oc2ccc(NC(=O)CCCCCC(=O)Nc3ccccc3N)cc2CC1=O,x,i,x,x,x,-4.1,-8.3,14.9,-1.1
O=C(OCCC1Oc2cccnc2NC1=O)c1ccc(Cl)cc1 (centres undefined),-5.3,i,0.682,-7.0,3.2%,13.5,11.9,0.7,-1.3
CCN(CC(=O)Nc1ccc2c(c1)OCO2)S(=O)(=O)c1ccccc1,-3.9,i,0.686,-2.3,x,2.1,10.9,-0.8,-0.7
COc1ccc(NC(=O)c2ccc3c(c2)S(=O)(=O)N=C2CCCCCN23)cc1S(N)(=O)=O,x,i,0.667,0.2,x,2.5,7.3,-3.0,3.3
CCOc1ccc(/C=N/n2c(C)nc3ccccc3c2=O)cc1,-1.1,x,x,-2.5,4.6%,x,x,x,x
Cc1ccc(-c2nc(Nc3cccc(C)c3)sc2CC(=O)O)cc1,98.4*,i,0.717,5.2,-1.2%,-10.8,-15.5,6.7,-7.8
COc1cc(C=O)cc(Cl)c1OC(=O)N1CCOCC1,7.3,i,0.665,-0.1,-4.0%,10.4,12.2,2.9,0.3
O=C(CCCn1cnc([N+](=O)[O-])n1)Nc1cccc2ccccc12,-28.7,i,0.617,5.6,8.7%,5.9,3.9,-1.7,3.1
CC(C)OCCCNC(=O)C1CC(=O)N(CCc2ccc(F)cc2)C1 (centres undefined),x,i,0.702,-2.1,x,15.9,14.8,3.8,-1.4
O=C(c1cccc(S(=O)(=O)N2CCCCC2)c1)N1CCc2ccccc21,-7.9,i,0.728,1.8,-10.3%,-0.4,-1.6,5.1,-9.1
CCN(CC)S(=O)(=O)c1ccc(N2CCCC2)c(NC(=O)c2ccncc2)c1,-2.9,i,0.65,3.8,x,7.5,6.0,-1.4,1.0
Cc1cccc(NC(=O)N(Cc2cc3cc(C)ccc3[nH]c2=O)CC2COCCO2)c1 (centres undefined),x,i,0.688,0.4,1.6%,-24.4,-36.7,-3.5,2.2
Cn1c(=O)c(C#N)c(-c2ccc(F)cc2)c2cc(C(=O)c3cc(Cl)cc(Cl)c3O)cnc21,-12.8,i,0.67,10.2,x,-28.0*,-16.2*,-7.8*,3.7
CCn1c(SC)nc2c(c1=O)SC(C)C2 (centres undefined),-7.3,i,0.695,-3.0,u,5.4,-2.8,-2.0,-1.0
CCOc1ccc(-c2ccc3nnc(SCC(=O)NCC4CCCO4)n3n2)cc1 (centres undefined),-2.6,i,0.706,0.0,-4.8%,2.2,2.7,-3.3,-7.4
COc1cccc(NC(=O)N[C@@H]2C=C[C@H](CC(=O)N3CCOCC3)O[C@H]2CO)c1,x,i,x,x,x,-0.3,-14.6,-4.5,-0.8
COCCNC(=O)C(=O)N/N=C(\C)CC(=O)Nc1ccc(Cl)cc1Cl,18.2,i,x,1.3,-2.4%,3.2,1.7,-1.5,4.8
C/C=C/c1ccc([C@@H]2[C@@H](CO)N(C(=O)c3cnccn3)C23CN(C(C)=O)C3)cc1,x,i,x,x,x,0.0,-2.4,0.1,-0.9
CCCS(=O)(=O)N1CCCC(C(=O)NCCc2ccccc2)C1 (centres undefined),x,i,0.687,1.4,-0.1%,10.0,7.9,2.0,-2.4
COc1ccc2c3c([nH]c2c1)[C@H](CO)N(C(=O)c1ccncc1)CC31CN(C(=O)C2CCC2)C1,x,i,x,x,x,0.0,2.0,-2.5,-10.8
C[C@H]1CN([C@@H](C)CO)C(=O)Cc2cc(NC(=O)Cc3ccccc3)ccc2O[C@H]1CN(C)S(=O)(=O)c1ccc(Cl)cc1,x,i,x,x,x,6.1,0.5,-2.1,-0.5
CCC(=O)Nc1ccc2c(c1)C(=O)N(C)[C@@H]1CC[C@H](CC(=O)NCCc3ccccc3)O[C@@H]1CO2,x,i,x,x,x,-0.8,-3.5,-0.4,-0.6
CCC(C)NC(=O)c1c(-c2cc(Cl)c(OC)c(Cl)c2)noc1C (centres undefined),-115.3,i,0.762,-4.9,3.9%,1.4,-4.1,1.9,0.8
O=C(N[C@H]1CC[C@H](CCNS(=O)(=O)c2ccc(Cl)cc2)O[C@H]1CO)c1cnccn1,x,i,x,x,x,-10.1,-9.8,14.7,-1.6
O=[N+]([O-])c1cc(C(F)(F)F)cc([N+](=O)[O-])c1NN=C1CCCCC1,-0.4,x,0.719,-75.9,24.5%,x,x,x,x
CCOC(=O)c1c(C)sc2c1N(C(=O)CN(CC)CC)c1cc(Cl)ccc1S2,-10.8,x,0.751,-2.4,2.1%,x,x,x,x
Cc1ccccc1CS(=O)(=O)Cc1ccc(C(=O)NC2CCCC2)o1,32.0,i,0.675,-1.0,2.6%,2.4,-1.4,-2.8,0.5
O=C(CCc1ccccc1)Nc1ccc(NC(=O)C2CC2)nc1,-21.9,x,0.681,3.3,6.5%,x,x,x,x
CCOc1ccc(S(=O)(=O)NNC(=S)Nc2ccc(Br)cc2)cc1,27.2,x,0.707,-2.1,x,x,x,x,x
Cc1ccc(Cn2c(=O)oc3ccccc32)cc1,-2.8,i,0.667,1.7,-9.2%,-0.1,0.5,0.9,5.6
CCn1c(CNc2ccc(F)cc2)nnc1SCC#N,5.7,i,0.661,-4.1,x,-2.1,2.4,-3.5,1.7
Cc1ccc(S(=O)(=O)N2C[C@H]3C(=O)C[C@@H](c4ccc(Cl)cc4)N(S(=O)(=O)c4ccccc4C)[C@H]3C[C@H]2c2ccccc2)cc1,x,i,x,5.3,-0.2%,25.7,14.2,1.0,3.3
CSc1ccccc1OCc1cc(C(=O)N(C)CCn2nc(C)cc2C)no1,-1.5,i,0.631,-3.1,x,-7.5,-4.9,6.9,-0.2
COc1ccc(S(=O)(=O)N(C)C[C@@H]2OCCCC[C@@H](C)Oc3ccc(NC(=O)Nc4ccc5c(c4)OCO5)cc3C(=O)N([C@H](C)CO)C[C@@H]2C)cc1,x,i,x,x,x,-0.9,2.3,-2.2,1.5
O=C(c1ccc2ccccc2c1)C1CCCN(C(=O)CCn2cnnn2)C1 (centres undefined),-19.3,x,0.702,3.0,-2.2%,9.9,8.5,1.9,-0.3
Nc1nc(Cl)cc(NCCc2ccc(O)cc2)n1,72.5,i,0.671,-1.3,6.0%,-2.4,1.6,-0.6,0.2
C[C@H](CO)N1C[C@H](C)[C@@H](CN(C)C(=O)c2ccc3c(c2)OCO3)Oc2cc(-c3cncnc3)ccc2S1(=O)=O,x,i,x,x,x,3.8,7.3,-0.6,-0.4
COc1ccc2c3c([nH]c2c1)[C@H](CO)N(Cc1ccccc1)CC31CCN(C(=O)c2ccccn2)CC1,x,i,x,x,x,0.5,-0.9,1.2,-9.5
CCOC(=O)C1CCCN(C(=O)COc2ccccc2O)C1 (centres undefined),32.1,x,0.684,1.2,-1.2%,x,x,x,x
CN1CCN(C2=Cc3ccccc3Sc3cc(F)ccc32)CC1,21.9,x,0.655,4.9,x,x,x,x,x
CN1CCN(C(=O)/C=C\C(=O)O)CC1,-6.0,i,0.692,2.2,x,16.6,2.3,-0.6,1.4
COc1cccc(CNC(=O)[C@@H]2[C@@H](CO)[C@@H]3Cn4c(ccc(-c5cccc(OC)c5)c4=O)[C@@H]3N2C)c1,x,i,x,x,x,-6.3,-7.9,0.2,5.6
CC(=O)c1csc(CS(=O)(=O)c2ccccn2)n1,-8.8,i,0.647,1.8,-4.4%,x,x,x,0.8
CCC(=O)Nc1ccc2c(c1)C(=O)N(C)C[C@H](OC)[C@@H](C)CN(C(=O)c1ccccc1F)[C@@H](C)CO2,x,i,x,x,x,-2.1,-0.2,0.0,3.5
O=C(Nc1nccs1)c1cc(-c2ccco2)nc2ccccc12,x,i,0.651,-26.5,u,-9.4,-11.1,3.9,8.9
CCOC(=O)c1ccccc1NC(=O)c1cncc(Br)c1,x,x,0.752,-0.3,-14.7%,x,x,x,x
# (continued)
SMILES,ALR inh,FGF22 binding,E coli growth,HNF4A DNA FP,Vif A3G,Ecoli rRNA inh,Ecoli rRNA inh OD600,Ecoli rRNA inh RFP,AF4-AF9 inh
C[C@H](CO)N1C[C@H](C)[C@H](CN(C)C(=O)Nc2ccc(F)cc2)Oc2c(NS(=O)(=O)c3cccs3)cccc2C1=O,x,i,x,x,x,-11.5,-15.5,3.8,1.6
CSCCCNC(=S)Nc1ccc(N2CCOCC2)cc1N1CCOCC1,95.6*,i,0.683,5.2,3.1%,-0.5,-18.4,-15.5,-0.7
COc1ccc(NC(=O)N(C)C[C@@H]2Oc3ccc(NC(=O)NC(C)C)cc3CC(=O)N([C@H](C)CO)C[C@H]2C)cc1,x,i,x,x,x,8.6,8.0,-2.3,-14.0
Cc1cc(C)c(C)c(C(=O)c2ccccc2C(=O)O)c1C,4.0,i,0.641,4.1,7.3%,2.5,-2.9,-1.3,-8.0
Cc1cccc(Nc2nc(N)nc(CSc3nccn3C)n2)c1,-14.6,x,0.637,-1.2,5.9%,x,x,x,x
Cc1ccc(S(=O)(=O)NCCNC(=O)c2ccc(C)nc2)cc1,-0.5,i,0.648,-3.4,x,5.2,5.6,1.4,-10.9
Cc1ccsc1-c1nc(CN2CCCC2c2ccc(F)cc2)c(C)o1 (centres undefined),8.3,i,x,5.2,4.8%,6.2,-4.3,1.6,1.1
CCCCCCCCCCNC(=O)CCn1[nH]c(=O)c2ccccc2c1=O,-4.0,x,0.663,1.8,-0.6%,x,x,x,x
Cc1ccc2c(c1)N(CC(=O)NC1CCCc3ccccc31)C(=O)CO2 (centres undefined),-53.8,x,0.721,3.1,6.2%,x,x,x,x
Cc1noc(C)c1NC(=O)Nc1ccc2c(c1)C(=O)N([C@@H](C)CO)C[C@@H](C)[C@H](CN(C)Cc1ccc(-c3ccccc3)cc1)O2,x,i,x,x,x,-2.4,-7.6,2.5,5.9
CC1CC1C(=O)N(C)CC(=O)Nc1ccc(Cl)c(C(F)(F)F)c1 (centres undefined),9.6,i,0.699,2.0,-6.7%,11.3,19.4,3.0,-9.7
COc1ccc(S(=O)(=O)N(C)C[C@H]2OCCCC[C@H](C)Oc3ccc(NC(=O)C4CCCCC4)cc3C(=O)N([C@@H](C)CO)C[C@H]2C)cc1,x,i,x,x,x,1.1,-0.4,0.9,-3.0
O=C1NC(c2cccc3ccccc23)Nc2ccc(Cl)cc21 (centres undefined),x,i,x,1.1,-0.7%,9.6,-21.6,28.7,-5.4
C[C@H](CO)N1C[C@H](C)[C@@H](CN(C)S(=O)(=O)c2ccccc2)Oc2cc(C#Cc3ccncc3)ccc2S1(=O)=O,x,i,x,x,x,-7.0,-4.9,5.0,-0.2
Clc1cc(Cl)c(Cl)cc1Cl,6.4,i,0.672,0.6,x,5.9,8.2,1.8,x

# Bioassay records (PubChem)
